Bioassay records: PubChem BioAssay, several laboratories
MLL AF4-AF9 inh = MLL-AF4/AF9 protein interaction inhibition; AlphaScreen, biotin-AF4 peptide binding to FLAG-AF9; inhibition, % at 10 µM; hit rate 0.47% among 350,000;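 active = every replicate reaching a set inhibition limit, whatever the replicate mean, cut at about 25% in these data; inconclusive = mean inhibition reaches that limit but some replicates miss it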;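 note: 0% = plate neutral control median and 100% = total signal loss; the record names both 10 and 1 µM as test concentration; the first replicate is given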
Target sequence (P42568 whole entry, looked up): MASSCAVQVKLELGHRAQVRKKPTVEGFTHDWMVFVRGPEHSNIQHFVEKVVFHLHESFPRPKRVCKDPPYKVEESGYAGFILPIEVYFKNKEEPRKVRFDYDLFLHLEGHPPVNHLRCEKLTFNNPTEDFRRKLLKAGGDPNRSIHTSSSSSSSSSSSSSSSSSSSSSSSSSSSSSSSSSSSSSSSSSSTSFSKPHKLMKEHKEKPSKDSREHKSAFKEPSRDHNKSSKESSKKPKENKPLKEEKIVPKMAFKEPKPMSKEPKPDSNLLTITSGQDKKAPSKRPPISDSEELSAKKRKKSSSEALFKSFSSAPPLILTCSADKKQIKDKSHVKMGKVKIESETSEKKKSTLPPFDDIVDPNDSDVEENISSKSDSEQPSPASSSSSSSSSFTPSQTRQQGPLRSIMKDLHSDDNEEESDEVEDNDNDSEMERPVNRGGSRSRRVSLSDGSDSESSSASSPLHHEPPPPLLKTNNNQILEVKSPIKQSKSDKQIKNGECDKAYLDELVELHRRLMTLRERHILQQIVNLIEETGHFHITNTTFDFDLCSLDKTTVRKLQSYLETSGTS
rRNA inh HTS = inhibitors of bacterial rRNA selective over humanized ribosomes | AID 720706 | hit rate 1.6% among 350,000 | E. coli WT GFP vs humanized-ribosome RFP mutants, fluorescence, 24 h; stronger effect = lower value; DMSO median 0, no signal -100 | GFP signal change (wild-type ribosome), % (no concentration beside the values);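 active = significant combined selectivity score with lowered wild-type GFP, culture density cut under 30%, mutant RFP and density less affected; inactive = any of these conditions unmet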; note: one replicate is shown; some compounds called inactive have numbers as strong as hits
RanGTP-Imp inh = disruptors of Ran-importin-beta complex formation – biochemical, FRET, CFP-Ran, YFP-importin-beta, homogeneous, primary screen; cell-free CFP-Ran/YFP-importin-beta FRET ratio; inhibition, % (concentration not given with the values); hit rate 1.1% among 300,000;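 active = most replicates above 15%; inconclusive = exactly half above 15%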;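 note: 0% = DMSO wells and 100% = Ran loaded with GDP instead of GTP; wells of about 40 µL received 100 nL stock; the first replicate is given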
T cruzi inh = blocks replication of Trypanosoma cruzi; inhibition, % (test concentration not listed); hit rate 1.4% among 300,000; AID 1885; T. cruzi beta-gal in NIH3T3, luminescence, 90 h;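 active = mean inhibition across valid replicates above about 55%, limit read from the data; inconclusive = mean below that limit but half or more replicates reach it; inactive = mean below it, under half of replicates reach it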;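 note: signal also drops with host cell toxicity which is not excluded here; 0% = plate median of DMSO wells and 100% = zero luminescence signal; higher percent means less beta-gal luminescence so fewer parasites; stock transfer was 50 nL into about 50 µL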
Calb FLC = C. albicans growth modulation with fluconazole; hit rate 0.57% among 300,000; growth inhibition, % (concentration not given with the values); C. albicans CaCi-2 (fluconazole-resistant clinical isolate) + fluconazole, Alamar Blue growth, 48 h;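 active = most replicates above 75%; inconclusive = exactly half above 75%; inactive = most below 75%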;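 note: all wells also contain fluconazole at 8 µg/ml as a sub-toxic cotreatment; 0% = median of DMSO wells and 100% = median of geldanamycin control wells; wells of about 8 µL received 7.5 nL stock; the first replicate is given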
Beta cell apopt = beta cell apoptosis inhibition. INS-1E cytokine-induced death, ATP luminescence, 48 h; percent of positive-control rescue, neutral wells zero. protection from apoptosis, % (concentration not given with the values). hit rate 0.8% among 300,000. AID 435005;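 active = all replicates at 75% or more, or half of them and the mean; inconclusive = half reach 75% but not the mean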;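 note: 0% = cytokine-treated negative control wells and 100% = positive control rescue; higher means more ATP so stronger rescue from cytokine killing; wells of about 40 µL received 100 nL stock; the first replicate is given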
Bfl-1 A1 inh = inhibitors of the anti-apoptotic protein A1, read as caspase activation | MEF A1-2A-BIM cells, Caspase-Glo 3/7 luminescence, 3 h; percent of clofoctol response, vehicle zero | caspase activation, % (concentration not given with the values) | hit rate 0.066% among 330,000;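 active = over half of replicate activation scores above 10%, or exactly half above 10 with the replicate mean above 10; inconclusive = replicate mean below 10 yet half the replicates above 10; inactive = over half of replicates below 10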;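 note: wells of about 30 µL received 50 nL stock; many hits fall short of the cut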
Vif TR-FRET = HIV-1 Vif–A3G interaction blockers – biochemical, TR-FRET, GST-Vif 1-94, biotin-A3G peptide, dose response retest, primary screen (AID 1117319) | TR-FRET GST-Vif / biotin-A3G peptide binding; higher % means a stronger effect; test concentration not given here; strong numbers were not always called active | inhibition, %; hits with a dose series show IC50 in µM | hit rate 0.57% among 260,000;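 active = above the screen mean plus three standard deviations and confirmed in dose response; inconclusive = results disagree or hit not tested in dose response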;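 note: Vif residues 1-94 fused to GST binding biotinylated APOBEC3G peptide 110-148; 0% = full assay without inhibitor and 100% = GST in place of GST-Vif; retest series ran down from 100 µM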
rRNA inh HTS OD600 = second read-out of rRNA inh HTS, no call of its own (marks repeat the call); OD600 change, %; measured here: OD600 growth;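 optical density of the mix in the first replicate; 0 = DMSO median and -100 = no signal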
rRNA inh HTS RFP = recorded beside rRNA inh HTS, whose call it bears; RFP signal change, %; measured here: RFP humanized mutant strains;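 first replicate; 0 = DMSO median and -100 = no signal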
* marks the source's active call; other numbers are inactive results; ? = inconclusive; nt = no result given; & = joins results of further samples.

SMILES	MLL AF4-AF9 inh	rRNA inh HTS	rRNA inh HTS OD600	rRNA inh HTS RFP	RanGTP-Imp inh	T cruzi inh	Calb FLC	Beta cell apopt	Bfl-1 A1 inh	Vif TR-FRET
Cc1c(C(=O)N2CCOCC2)oc2c1C(=O)CC(C)(C)C2	nt	nt	nt	nt	-2.3	-3	-4	1	0.0	8%
O=C(NNS(=O)(=O)c1ccc(F)cc1)c1ccccc1O	-3.9	-6	-6	-2.1	-4.5	-10	-6	nt	1.8	nt
CC1(C)Cc2c(C#N)c(NCCO)nc(-c3ccco3)c2CO1	-0.4	6	10	3.9	4.9	-17	0	-6	-0.8	29%
Nc1nc(NCc2ccccc2)nc(-c2ccccc2)n1	nt	nt	nt	nt	?	2	-4	-5	0.3	0%
O=C(C1=C[C@@H](C2CC2)C[C@@H](OCCCCO)O1)N1CCOCC1	-3.6&-2.5	4	15	-0.5	0.8	-21	-12	1	-0.5	-13%
O=C(N/N=C(/c1ccccc1)c1ccncc1)c1ccc2c(c1)OCO2	3.9	-9	3	-8.4	-2.9	6	19	4	0.2	-1%
CC1CCN(c2ccc(C(=O)NCCc3ccccc3)cn2)CC1	nt	nt	nt	nt	?	17	28	2	0.8	-3%
COc1ccc([C@@H]2[C@@H]3C(=O)N(C(C)(C)C)C(=O)[C@@H]3[C@]3(Cc4ccccc4)C(=O)N(c4ccccc4)C(=O)N23)cc1	-26	7	12	-3.0	-1.2	-15	-2	-2	-0.4	nt
O=C(CN1CCCCCC1)Nc1ccc(Br)cc1	nt	nt	nt	nt	?	1	-10	-3	0.7	0%
Nc1ncn(C23CC4CC(CC(C4)C2)C3)n1	nt	nt	nt	nt	8.5	-1	7	-2	0.2	17%
Cc1ccc(C(=O)NC(=S)N(C)C2CCCCC2)cc1Br	-1.7	12	3	-4.2	-0.6	60*	2	8	-0.8	nt
O=C(NCCn1cc(SCC(=O)N2CCOCC2)c2ccccc21)c1c(F)cccc1F	5.1	-1	-4	-7.1	4.4	1	-3	-2	0.1	6%
CCOc1ccc(C(=O)N2CCN(c3cccc(C)c3C)CC2)cc1	nt	nt	nt	nt	-0.8	-2	5	-3	-0.6	-5%
CS(=O)(=O)N(CC(=O)NCC1CCCO1)c1cccc(Cl)c1 (centres undefined)	-1.0	7	11	-3.1	-3.3	-2	1	-7	0.7	-7%
N#Cc1c(-c2ccccc2)nc(SCC(=O)N2c3ccccc3Sc3ccccc32)[nH]c1=O	-0.5	-56	-48	-11	-0.9	7	2	-4	-0.4	-20%
COc1ccc2c(c1)[nH]c1c(=O)n(/N=C/c3ccc(OC)c(CN4CCCC4)c3)cnc12	2.5	-10	-9	-1.7	?	36	-6	7	0.2	28%
O=C(N/N=C/c1ccncc1)C1C2CCCCCCC21 (centres undefined)	nt	nt	nt	nt	1.6	-24	2	-1	1.0	-2%
C=COCCCNc1ncnc2sc(-c3ccccc3)cc12	1.6	-32	-60	3.2	3.1	29	-2	54	0.7	-8%
O=C1CC(c2ccccc2)NC(=O)N1 (centres undefined)	nt	nt	nt	nt	2.5	-4	?	0	-0.2	1%
CC12C=CC(=O)C=C1CCC1C3CCC(O)(C(=O)CO)C3(C)CC3OC312 (centres undefined)	-1.5	nt	nt	nt	4.0	-2	-12	1	0.1	nt
CN1CCN(C(=S)SCC(=O)N2CCCc3ccccc32)CC1	-3.1	-3	0	0.9	1.4	14	-9	nt	0.7	-3%
Cc1ccnc(N2CCC(C(=O)NNC(=O)c3ccccc3)CC2)n1	4.5	19	8	0.4	-0.3	3	-1	-6	0.2	2%
CCN(CC)S(=O)(=O)c1ccc(NC(=O)c2ccc(Sc3nncn3C)c([N+](=O)[O-])c2)cc1	0.4	14	20	-2.3	23*	-25	3	-7	-0.7	nt
Oc1c(Br)cc(Br)cc1/C=N/c1nccs1	0.7	-13	-22	13	nt	nt	nt	-9	0.1	2%
O=C(COC(=O)/C=C/c1ccc2c(c1)OCO2)Nc1ccccc1	-2.6	-10	-17	-2.1	-2.8	-5	-17	-5	-0.8	-1%
COC(=O)CC1COc2ccccc2N1C(=O)c1ccc(OC)cc1 (centres undefined)	nt	nt	nt	nt	3.2	-6	23	-3	-0.1	-9%
NC(=O)CCN1CCN(C(=O)c2ccc3nc(Cc4cccc(Cl)c4)oc3c2)CC1	0.7	3	1	2.0	-0.3	-11	3	-3	0.6	nt
COc1cccc(C(=O)NNC(=O)CCC(=O)O)c1	3.2	7	2	-2.8	4.1	-6	-4	-6	0.5	2%
CCc1ccccc1NC(=O)CN(C)C(=O)Cn1cc(C(F)(F)F)cc(Cl)c1=O	-2.2	14	8	3.4	0.8	16	11	-6	0.5	?
COc1cc([N+](=O)[O-])ccc1NC(=S)NCc1ccccn1	nt	nt	nt	nt	-3.4	-2	-6	-1	-1.1	nt
Cc1ccc(O)c(C(=O)c2cnc3c(c2)c(C)nn3-c2ccccc2)c1	nt	nt	nt	nt	-0.6	-20	1	1	0.1	-2%
S=C(NCc1ccccc1)NCc1ccccc1	-4.3	-3	3	-8.4	-5.6	-16	7	-1	0.2	2%
CCC(=O)Nc1cccc(C(=O)/C=C/c2ccccc2)c1	nt	nt	nt	nt	2.4	-10	6	-6	-0.7	0%
O=S1(=O)C=CC(c2ccccc2)C1 (centres undefined)	-2.1	3	-2	-2.9	-1.7	-24	-1	-5	1.2	0%
CCN1CCc2c(OCc3ccccc3)cccc2C1=O	2.2	-14	-12	2.4	3.9	5	3	-3	-0.5	4%
CCCOc1ccc(NC(=O)CC2C(=O)N(C)C(=S)N2Cc2ccc3c(c2)OCO3)cc1 (centres undefined)	7.4	-21*	-17*	1.2*	2.3	-21	25	-2	-0.6	17%
CO[C@H]1O[C@@H]2O[C@@]3(C)CC[C@H]4[C@H](C)CC[C@@H]([C@H]1C)[C@@]24OO3	nt	nt	nt	nt	-2.8	7	nt	3	0.3	nt
CCCOc1ccccc1NC(=O)c1ccc(N)cc1	nt	nt	nt	nt	1.1	-5	-4	-3	0.9	0%
CCn1cc(C(=O)N[C@@H](CCSC)C(=O)NC(C)(C)CO)c(=O)c2cc3c(cc21)OCO3	-0.5	-8	2	2.2	-1.5	-8	-9	1	-0.3	0%
O=C(O)c1cn(C2CCCCC2)c2ccccc2c1=O	-3.1	7	0	0.6	3.9	-5	8	10	0.4	0%
CCC(C(=O)NCCc1c[nH]c2cc(OC)ccc12)c1ccccc1 (centres undefined)	8.4	5	-5	-1.6	?	-20	-7	-3	-1.2	1%
Cc1ccc(C2N3CC4([N+](=O)[O-])CN2CC([N+](=O)[O-])(C3)C4(C)C)cc1 (centres undefined)	1.0	21	11	-0.3	nt	-2	-1	14	-0.5	nt
O=c1cc(O)c(-c2ccccc2)c(Cl)[nH]1	nt	nt	nt	nt	-1.5	-5	-3	-2	0.5	-1%
COC(=O)CSc1nc(-c2ccccc2)cc(-c2ccco2)c1C#N	nt	nt	nt	nt	0.1	-4	5	-21	0.0	20%
COc1cc(Cl)ccc1NC(=S)N(CCN(C)C)C(C)c1ccncc1 (centres undefined)	5.3	-3	0	-4.1	-4.3	4	7	-8	0.2	4%
COc1ccc(CC(=O)OCC(=O)c2ccc[nH]2)cc1	0.8	4	10	5.9	nt	nt	nt	-4	0.4	8%
CCOC(=O)N1CCC(Nc2c(NCCCN(CC)c3cccc(C)c3)c(=O)c2=O)CC1	8.1	-13	-24	2.4	1.3	8	4	-2	-0.1	5%
C=C[C@@]1(C)CC(=O)[C@]2(O)[C@@]3(C)[C@@H](O)CCC(C)(C)[C@@H]3[C@H](OC(C)=O)[C@H](O)[C@@]2(C)O1	-2.8	7	5	-1.1	4.1	1	-4	4	-2.0	nt
CCCCOc1cccc(/C=N/NC(=O)c2csc(C)c2C)c1	nt	nt	nt	nt	0.5	3	3	1	-1.7	8%
O=C(O)CCCCCCNC(=O)c1cncc(O)c1	-0.4	7	1	2.1	8.8	-8	4	1	-0.4	-8%

Remaining list, next part:
SMILES	MLL AF4-AF9 inh	rRNA inh HTS	rRNA inh HTS OD600	rRNA inh HTS RFP	RanGTP-Imp inh	T cruzi inh	Calb FLC	Beta cell apopt	Bfl-1 A1 inh	Vif TR-FRET
Cc1cc(C)cc(OCC(=O)N(Cc2ccccc2)C2CCS(=O)(=O)C2)c1 (centres undefined)	-1.8	0	-8	2.8	0.8	0	-4	0	0.4	nt
COc1ccc(C(C)=O)cc1COc1ccc(Cl)cc1Cl	-1.5	17	11	-0.8	-1.3	26	1	2	0.3	nt
CCc1nc(-c2ccc(-c3ccc(OC)cc3)nc2OC)no1	nt	nt	nt	nt	6.4	-7	16	0	-1.2	?
CCC(C)NC(=O)c1cc(C)no1 (centres undefined)	nt	nt	nt	nt	0.3	-11	?	nt	-0.6	-3%
COc1ccc(Cn2c(=O)[nH]c3cc(C(=O)N4CCN(c5ccc(C(C)=O)cc5)CC4)ccc3c2=O)cc1	0.4	2	4	-0.4	4.0	15	12	9	-0.3	nt
Cc1cccc(CC2CC(=O)N(c3ccc([N+](=O)[O-])cc3)C2=O)c1 (centres undefined)	-1.1	0	-5	0.9	0.1	-18	55	nt	0.3	nt
COc1ccc(-c2ccc(SCC(=O)NC3CCCC3)nn2)cc1OC	-0.7	-7	-6	0.7	?	-13	-4	5	0.2	0%
CCc1cc(C(=O)NCC(c2ccco2)N2CCCCC2)sc1C (centres undefined)	0.0	8	3	5.8	nt	nt	nt	-3	0.0	13%
Cc1ccccc1-c1nnc(-c2ccc(Cl)cc2)o1	-11	8	9	-2.1	-4.4	8	-11	-2	-3.9	33%
CCN(CC)C(=O)C(=O)c1ccn(-c2c(C)csc2C(=O)OC)c1	-1.1	11	2	2.7	0.5	-7	6	3	-0.2	?
CC1CCCN(C2(O)C(=O)Nc3ccc(Cl)cc32)C1 (centres undefined)	2.5	-2	-9	-0.2	-1.0	-10	4	-6	0.3	nt
C=CCn1c(SCC(=O)Nc2ccc(Br)cc2)nc(O)c(CC)c1=O	-4.3	-7	-33	-0.5	0.6	-1	14	-8	-1.1	nt
CC(C)CC(NC(N)=O)C(=O)OCC(=O)Nc1ccc(SC(F)F)cc1 (centres undefined)	0.4	0	2	-5.7	2.6	-14	14	-1	3.3	-1%
CCCCn1c(N)c(N(CCOC)C(=O)c2cccc(S(=O)(=O)N(C)c3ccc(C)cc3)c2)c(=O)[nH]c1=O	0.9	4	1	-1.5	nt	-3	-3	-4	-0.7	nt
O=C(NCc1ccccc1)c1csc2c1CCCCC2	nt	nt	nt	nt	3.5	13	-51	-2	1.8	0%
OCC1CCCN(c2ncnc3scc(-c4ccccc4)c23)C1 (centres undefined)	-12	-44	-62	-12	3.6	5	-3	-3	1.3	5%
O=C(Nc1cc(S(=O)(=O)N2CCOCC2)ccc1N1CCOCC1)c1c(F)cccc1Cl	2.4	-6	-4	-3.5	nt	nt	nt	1	-0.3	3%
CCOC(=O)N1CCN(C(=O)c2ccc(N3C(=O)c4ccccc4C3=O)cc2)CC1	nt	nt	nt	nt	2.6	nt	-1	-2	-0.6	13%
CC(OC(=O)c1ccc(Cl)nc1)C(=O)NC(C)(C)C (centres undefined)	-0.6	8	5	1.6	2.3	-13	1	-3	0.5	?

An excerpt (hit frequency here may not be typical).
